Screens as filed in PubChem.
CtBP-E1A blk – CtBP/E1A binding inhibition; 340,000 tested, 0.49% active; activity change, % (test concentration not listed); AlphaScreen GST-E1A/His-CtBP binding, 1536-well; hits give low values; control for the full effect not named in the record; in the data active means activity change below about -65%; inconclusive means about -30% to -65%; inactive means above about -30%; further: on the % scale 0 is the no-effect control and ±100 the full control effect; compound concentration not given in the record
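Protein mix (5X: 125 nM each GST-E1A, His-CtBP) was incubated with pinned compound 2 h at 37 deg C in dark, in 50 mM Tris pH 8.0 buffer with 300 mM NaCl. Glutathione donor and nickel acceptor beads followed; AlphaScreen signal read after 1 h.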
TRPML1 ag – agonists of human TRPML1 channel; Q9GZU1; TRPML1-expressing cells, Ca2+ dye fluorescence, FDSS; host cell line not named in the record; reference of the full effect not given here; activation, % (test concentration not listed); 410,000 tested, 0.12% active; AID 624414; in the data active = activation above about 50%; inconclusive = about 30% to 50%; inactive = below about 30%; further: 0% is about no effect; the text of the record puts the active cut at 80%
Target sequence (Q9GZU1 whole entry, looked up): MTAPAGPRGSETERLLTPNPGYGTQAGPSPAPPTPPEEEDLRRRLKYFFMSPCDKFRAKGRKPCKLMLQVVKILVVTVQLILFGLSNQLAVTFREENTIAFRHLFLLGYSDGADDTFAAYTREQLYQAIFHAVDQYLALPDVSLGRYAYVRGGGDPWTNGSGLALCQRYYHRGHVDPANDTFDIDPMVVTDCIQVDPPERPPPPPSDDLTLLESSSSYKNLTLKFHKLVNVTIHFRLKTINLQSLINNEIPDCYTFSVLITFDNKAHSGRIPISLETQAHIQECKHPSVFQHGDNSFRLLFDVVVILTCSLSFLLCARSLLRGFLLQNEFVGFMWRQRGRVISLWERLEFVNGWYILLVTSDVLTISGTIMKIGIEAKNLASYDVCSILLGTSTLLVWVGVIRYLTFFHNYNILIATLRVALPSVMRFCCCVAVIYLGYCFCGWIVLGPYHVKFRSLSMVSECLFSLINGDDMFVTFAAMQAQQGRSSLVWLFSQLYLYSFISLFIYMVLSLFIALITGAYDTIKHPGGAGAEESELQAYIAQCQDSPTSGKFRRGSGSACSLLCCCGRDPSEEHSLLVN
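TRPML1-DL cells, Tet-induced overnight (~16 h, 37 degrees C), loaded 45-90 min at room temperature with Ca8 no-wash calcium dye plus quencher. FDSS fluorescence: 10 s baseline, compound pin-transfer, 110 s agonist read, then EC80 54-4 (4uM final) and 110 s antagonist read.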
Six1-Eya2 blk – Six1/Eya2 interaction inhibition | Q15475+O00167 | AlphaScreen GST-Six1/His-Eya2 binding, biochemical; hits give low values; control for the full effect not named in the record | activity change, % (test concentration not listed) | 360,000 tested, 0.56% active | AID 651725; in the data active = activity change below about -65%; inconclusive = about -30% to -65%; inactive = above about -30%; further: on the % scale 0 is the no-effect control and ±100 the full control effect; compound concentration not given in the record
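AlphaScreen luminescence read after one hour at 37 °C in darkness. Pin-transferred compounds met GST-Six1 and His-Eya2 protein (5X stock 250 nM/500 nM) plus glutathione donor and Ni-chelate acceptor beads (5X, 50 ug/mL).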
D2 potentiator – positive allosteric modulators of human D2 dopamine receptor | P14416 | DiscoveRx D2 beta-arrestin cells, luminescence, 90 min; 100% = 57 uM dopamine signal | potentiation, % (concentration not given with the values) | 360,000 tested, 0.23% active | AID 624464; active = potentiation of 50% or more; inconclusive = 30% to 50%; inactive = 30% or less;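 further: compound concentration not given in the record; tested on top of an EC20 dose of dopamine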
Target sequence (P14416 whole entry, looked up): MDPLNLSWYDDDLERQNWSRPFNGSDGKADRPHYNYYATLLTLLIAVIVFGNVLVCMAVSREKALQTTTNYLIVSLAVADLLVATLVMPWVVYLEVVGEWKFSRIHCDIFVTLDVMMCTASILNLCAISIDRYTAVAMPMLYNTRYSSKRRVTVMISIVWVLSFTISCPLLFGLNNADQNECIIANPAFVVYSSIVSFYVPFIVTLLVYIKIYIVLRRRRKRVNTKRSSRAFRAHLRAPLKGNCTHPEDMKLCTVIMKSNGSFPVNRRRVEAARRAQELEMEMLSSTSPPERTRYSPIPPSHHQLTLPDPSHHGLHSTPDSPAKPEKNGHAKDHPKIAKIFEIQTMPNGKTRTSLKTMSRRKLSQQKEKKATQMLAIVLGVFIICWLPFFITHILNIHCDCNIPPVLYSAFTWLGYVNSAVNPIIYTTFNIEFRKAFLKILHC
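PathHunter beta-arrestin assay in DiscoveRx D2 cells. Compounds were added with an EC20 of dopamine (50 nM final) for 90 min at 37 deg C. Luminescence was read 1 h after detection reagent, with 57 uM dopamine as the EC100 control.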
PINK1 expr mod – PINK1 expression modulation; PINK1 immunofluorescence, high-content cytometry, 24 h; Potency, µM (series often up to 76.6 µM), without a hit: at the top dose activation (PINK1 increase), usual class: activators; 410,000 tested, 0.2% active; AID 624263; active = well fitted activation curve with a large enough effect; inconclusive = small, poorly fitted or top-dose-only effect; inactive = flat fitted curve, though single readings scatter; cell line not stated here;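 further: potency means the concentration at half of the fitted maximal effect; % of control where 0% means no effect; nearly all actives have a fitted effect of over 65% in size; a mitochondrial uncoupler was the plate control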
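Readout is PINK1 immunofluorescence, quantified alongside mitochondrial, cell and nuclear markers by laser-scanning microplate cytometry. Cells from a stable line were exposed to compound titrations (5 concentrations) for 24 hours, with CCCP controls.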
D2 ag – human D2 receptor agonism in beta-arrestin assay. P14416. DiscoveRx PathHunter D2 beta-arrestin, luminescence, 90 min; 100% = 57 uM dopamine signal. activation, % (test concentration not listed). 360,000 tested, 0.084% active. AID 624465; in the data active = activation above about 40%; inconclusive = about 15% to 40%; inactive = below about 15%; further: compound concentration not given in the record; the text of the record calls up to 30% inactive
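Agonist mode: compounds alone added to overnight-plated D2 PathHunter cells for 90 min at 37 C, with 57 uM final dopamine (EC100) defining full response. Beta-arrestin recruitment detected by chemiluminescent reagent, read after 1 h at ambient temperature.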
Numbers without * were called inactive; ? = inconclusive; . = not tested or not shown; [ ] = another dose, or the depositor's remark. Not a hit list (roughly 1.3% active in at least one column).

SMILES	CtBP-E1A blk	TRPML1 ag	Six1-Eya2 blk	D2 potentiator	PINK1 expr mod	D2 ag
COc1ccc(N(C(=O)COc2ccc(C)cc2)S(=O)(=O)c2ccc(C)cc2)cc1	18	2.4	5	-16	-0.1%	-2.6
COc1cccc(CNC(=O)N[C@@H](C)C(=O)O)c1	10	-0.6	11	-4	0.3%	-0.9
O=C(CNC(=O)c1ccc(Br)o1)Nc1ccncc1	-8	0.6	7	2	1.3%	4.3
COc1ccccc1N1CCN(/N=C/c2cc(OC)c(O)c(OC)c2)CC1	2	1.1	-16	10	0.3%	4.9
Cc1nn(CC(=O)NCCCN2CCN(Cc3ccccc3)CC2)c(=O)c2cc(-c3ccccc3)nn12	.	0.0	-3	-17	-1.7%	0.4
CCN(CC)S(=O)(=O)c1ccc(NC(=O)CN(c2cccc(C)c2)S(C)(=O)=O)cc1	-4	-0.7	-3	-2	-0.1%	0.7
CCCCCCNCC1OCc2ccccc2CO1	-1	-0.5	-5	-27	3.5%	-8.0
O=C(NC1CCCCC1)C(c1ccc(F)cc1)N(CCCN1CCOCC1)C(=O)c1ccc(CN2CCOCC2)o1 (stereo not given)	3	0.1	-8	-23	2.0%	-3.1
Cc1cc(C)c2[nH]c(=O)c(C(c3nnnn3C(C)(C)C)N(Cc3ccco3)CC3CCCO3)cc2c1 (stereo not given)	5	-0.4	-1	-5	12%[38.3 µM]	-5.1
Cc1cc(OCCCC(=O)NCCc2ccccn2)ccc1Cl	-1	0.0	22	0	2.0%	1.4
O=C(CCc1nc2ccccc2[nH]1)Nc1ccc(F)cc1	5	-0.1	2	-10	14%[38.3 µM]	2.1
OCC1(CCOc2ccccc2)CCN(Cc2cc(Cl)ccc2O)CC1	-2	-0.1	-7	-13	2.2%	-1.5
O=C(O)Cc1csc(NC(=O)CSc2cccc(C(=O)O)n2)n1	-1	0.5	19	3	0.0%	2.4
CCc1ccc(NC(=O)CNCc2ccc(OC)c(OC)c2)cc1	6	0.5	16	4	2.4%	-1.2
COc1cc2c(cc1OC)CN(C(=O)C1CCCN1S(=O)(=O)c1ccc(F)cc1)CC2 (stereo not given)	0	-1.4	-30	-8	3.3%	-5.7
CCC1(c2ccccc2)NC(=O)N(CC(=O)N2CC(=O)Nc3ccccc32)C1=O (stereo not given)	-18	-0.2	9	-14	-0.4%	0.1
O=C(c1ccc(CSc2ccccc2)cc1)N1CCN(c2ccccc2)CC1	-11	1.9	-21	-8	0.7%	-1.1
CCc1[nH]c(=S)c(C#N)c(-c2ccccc2)c1C(=O)OC	0	-0.7	4	-10	0.5%	0.6
CN(CC(=O)Nc1cccc(F)c1)CC(=O)Nc1ccccc1Oc1ccccc1	.	1.9	1	-8	0.6%	-5.3
Cc1cnc(NC(=O)c2ccc(-c3nc4ccccc4s3)o2)s1	-1	-1.2	2	-5	2.2%	-1.5

Structures listed so far with a Cl atom, in the order listed:
SMILES	CtBP-E1A blk	TRPML1 ag	Six1-Eya2 blk	D2 potentiator	PINK1 expr mod	D2 ag
Cc1cc(OCCCC(=O)NCCc2ccccn2)ccc1Cl	-1	0.0	22	0	2.0%	1.4
OCC1(CCOc2ccccc2)CCN(Cc2cc(Cl)ccc2O)CC1	-2	-0.1	-7	-13	2.2%	-1.5

Additional entries.
SMILES	CtBP-E1A blk	TRPML1 ag	Six1-Eya2 blk	D2 potentiator	PINK1 expr mod	D2 ag
CCC(C)n1c(=N)c(C#N)cc2c(=O)n3cccc(C)c3nc21 (stereo not given)	-5	-0.1	-2	-1	2.6%	-1.7
CC(Sc1nc2ccccc2s1)C(=O)N(C)Cc1ccccc1 (stereo not given)	23	-1.1	5	17	0.1%	-1.2
CSc1ccccc1NC(=O)COC(=O)c1ccc(-n2nc(C)cc2C)cc1	-2	4.5	1	5	1.1%	1.8
CC(C)(C)c1cc(NC(=O)CCSc2nnc3ccccn23)cc(C(C)(C)C)c1	2	0.7	3	-9	30%[38.3 µM]	-3.3
COc1cccc(C(=O)NC(=S)Nc2ccc(Cl)c(C(=O)O)c2)c1	6	-0.6	-6	-12	4.5%	-1.6
CC(=O)Oc1ccc(/C=C2\N=C(C3CCCCC3)OC2=O)cc1	7	-0.4	-7	-14	8.4%	-1.3
COc1ccc2oc(C(=O)Nc3nccs3)c(C)c2c1	7	-0.7	-4	1	3.3%	5.3
Cc1nnsc1S(=O)(=O)Cc1ccccc1Cl	6	-1.0	6	-2	7.3%[38.3 µM]	-3.6
O=C1CC(c2ccccc2)CC(O)=C1C=NC1CCCCC1 (stereo not given)	15	-0.6	3	-8	9.8%[38.3 µM]	0.6
O=C(/C=C/c1ccco1)NC(=S)Nc1ccc(O)c(-c2nc3ccccc3s2)c1	-7	-0.8	-2	-5	-0.6%	-4.0
Cc1nn(-c2ccccc2)c(N2CCCC2)c1/C=N/NC(=S)Nc1cc(C(F)(F)F)ccc1Cl	4	2.2	-2	-10	9.1%	-4.1
COc1ccc(CN2CCCC(C(=O)N3CCc4ccccc4C3)C2)cc1OC (stereo not given)	-10	0.7	0	-33	-0.5%	-2.4
Cc1ccc(C)c(-c2csc(Nc3ncccn3)n2)c1	.	0.5	-3	-10	7.3%	-3.9
Cc1ccc2c(C)c(C(=O)Nc3ccc(S(N)(=O)=O)cc3)oc2c1C	-25	1.7	-6	-2	-2.2%	-4.6
O=C(Nc1ccccc1C(=O)O)c1ccc(CN2C(=O)c3ccccc3C2=O)cc1	-23	0.6	-12	1	0.2%	-1.8
Cc1ccc(C)c(/C(O)=C2\C(=O)C(=O)N(Cc3cccnc3)C2c2cccnc2)c1 (stereo not given)	-1	1.0	1	4	0.4%	-1.1
O=c1c(-c2ccccc2Cl)c[nH]n1-c1ccccc1	-5	-1.1	3	-7	1.5%	-1.2
CC(OC(=O)CNC(=O)c1ccccc1)C(=O)Nc1ccc(S(=O)(=O)N2CCOCC2)cc1 (stereo not given)	4	0.1	4	-17	0.0%	2.9
O=C(Nc1ccc(Cc2ccncc2)cc1)C1CCC(N2C(=O)C3CCCCC3C2=O)CC1 (stereo not given)	6	0.5	-9	0	8.9%	-1.2
O=C(Nc1ccc(S(=O)(=O)NC2=NCCCCC2)cc1)C1COc2ccccc2O1 (stereo not given)	.	0.2	6	-6	-1.1%	-1.4
Cc1ccc(-c2nnc(N3CCOCC3)c3ccccc23)cc1S(=O)(=O)N(C)C	-2	-0.1	-7	0	4.7%	-3.3
CCCC(=O)Nc1ccc2c(c1)nc(CN1CCN(C(=O)OCC)CC1)n2CC	8	1.0	0	-3	5.2%	-3.0
O=C(CSc1nnc2c(Cl)cc(Cl)cn12)NC1CCS(=O)(=O)C1 (stereo not given)	7	-0.7	?	-2	-0.4%	-0.7
O=C(Nc1ccc2c(c1)OCO2)C(=O)c1c[nH]c2ccccc12	.	-0.3	-4	-4	?	1.8
Cc1cc(N2C(=O)CC(N3CCN(c4ccc(C(=O)c5cccs5)cc4)CC3)C2=O)no1 (stereo not given)	-11	0.3	-4	-4	-2.3%	-0.2
Cc1cccc(C(=O)OC2CCOC2=O)c1C (stereo not given)	0	0.1	-4	-1	1.2%	2.9
CCn1c(=O)c(=O)n(CC)c2cc(S(=O)(=O)N3CCc4ccccc43)ccc21	-1	1.1	-2	6	-0.6%	4.4
CNC(=S)Nc1cccc2[nH]ncc12	7	0.3	2	-11	.	0.4
O=c1[nH]c2ccccc2n1Cc1ccc(Cl)cc1	0	-1.1	-5	14	0.9%	0.8
O=C(c1ccc(S(=O)(=O)N2CCOCC2)cc1)N(Cc1ccco1)Cc1cccs1	-13	11	-7	-3	-0.9%	0.6
Cc1ccc(NC(=O)c2c(C(F)(F)F)nn(C)c2SCc2ccc(Cl)cc2)cc1C	26	2.7	9	11	?	1.1
CC[C@]12c3[nH]c4cc(CCC(=O)N(C)C)ccc4c3CCN1C(=O)[C@@H](CC(=O)NCCN1CCOCC1)C[C@@H]2C(=O)N1CCN(C(=O)C2CC2)CC1	11	0.7	5	-4	-0.7%	-2.2
COc1ccc(Cl)cc1N(CC(=O)Nc1ccc2c(c1)OCCO2)S(C)(=O)=O	0	-0.4	-1	-4	-0.2%[38.3 µM]	-2.4
COc1ccc(S(=O)(=O)N(n2c(C)nnc2-n2nc(C)cc2C)S(=O)(=O)c2ccc(OC)cc2)cc1	-4	-0.5	2	-3	1.2%	-1.3
COC(=O)c1sc(=S)n(-c2ccccc2)c1N	-1	0.0	0	1	1.2%[38.3 µM]	-1.5
CCOC(=O)[C@]12CCC=C1N(Cc1ccco1)C(=O)[C@H](CC(=O)NCCCOC)C2	5	-0.6	3	.	-1.0%	.
CCOc1ccc(-c2cc(C(=O)N3CCC(C)CC3)c3ccccc3n2)cc1	7	0.0	3	4	4.5%	-1.0
c1ccc(CCC2CCCCN2Cc2cn[nH]c2-c2cc3ccccc3o2)nc1 (stereo not given)	0	0.0	-3	-1	-0.4%	0.8
O=c1[nH]c(C2CCN(S(=O)(=O)c3ccccc3F)CC2)nc2c1nnn2Cc1ccc(OC(F)(F)F)cc1	.	1.3	14	-6	2.4%	1.2
N#C/C(C(=O)N1CCOCC1)=C1/SC(Cc2ccccc2Cl)C(=O)N1c1ccccc1 (stereo not given)	-16	1.1	5	-4	-0.6%	-2.6

Copied from the list:
COc1ccc(Cl)cc1N(CC(=O)Nc1ccc2c(c1)OCCO2)S(C)(=O)=O | D2 potentiator: -4
Cc1ccc(NC(=O)c2c(C(F)(F)F)nn(C)c2SCc2ccc(Cl)cc2)cc1C | CtBP-E1A blk: 26

Additional compounds:
SMILES	CtBP-E1A blk	TRPML1 ag	Six1-Eya2 blk	D2 potentiator	PINK1 expr mod	D2 ag
CC(=O)Nc1ccc(S(=O)(=O)N2CCN(C(=O)CCC3CCCC3)CC2)cc1	-3	0.2	2	-7	1.3%	0.5
Cc1ccc(-c2csc(C3=C(O)CN(NC(=O)c4ccc([N+](=O)[O-])cc4)C3=N)n2)cc1	-9	0.5	4	-3	3.7%	1.0
CN1C(=O)/C(=N/OC(=O)c2ccccc2Br)c2ccccc21	-2	3.0	-3	-5	-0.5%	-2.8
O=C(CCSc1nnnn1-c1ccccc1)N1CCOCC1	2	-1.0	6	5	0.9%	-4.3
COC1CCCN(C(=O)c2cccc(OC3CCN(S(=O)(=O)N(C)C)CC3)c2)C1 (stereo not given)	1	0.6	5	-2	1.8%	-3.0
COc1ccc(Cc2noc(-c3ccccc3)n2)cc1OC	.	1.5	-4	-2	-0.4%	0.3
COc1ccc2c(c1)CCc1c(C(=O)NCc3ccc(F)cc3)noc1-2	2	0.2	0	-6	9.4%	-0.4
O[C@@H]1CN(C2CCCCC2)CC[C@H]1N1CCN(CCc2ccccc2)CC1	-24	0.4	-6	-11	-0.3%	-5.2
COC(=O)N/N=C/c1cccc(OC(=O)c2ccc3c(c2)OCO3)c1	-5	-0.5	-3	1	1.8%	-1.8
CC1(C)Cc2c(sc(NC(=O)C(=O)N3CCCC3)c2C#N)CO1	-6	0.4	4	23	0.2%	3.2
